Source: PubChem
Ecoli rRNA inh = reduced GFP signal of wild-type E. coli, primary screen, bacterial rRNA inhibitor project, GFP/RFP fluorescence, OD600, single point. E. coli WT GFP vs humanized-ribosome RFP mutants, 24 h; hits give low values; DMSO median 0, no signal -100. GFP signal change (wild-type ribosome), % (no concentration beside the values). actives 1.6% (n = 350,000);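 active = significant combined selectivity score with lowered wild-type GFP, culture density cut under 30%, mutant RFP and density less affected; inactive = any of these conditions unmet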; also: one replicate is shown; some compounds called inactive have numbers as strong as hits
Calb FLC = C. albicans growth inhibition with fluconazole, primary screen, CaCi-2 strain, Alamar Blue fluorescence; actives 0.57% (n = 300,000); C. albicans CaCi-2 (fluconazole-resistant clinical isolate) + fluconazole, 48 h; growth inhibition, % (concentration not given with the values);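 active = most replicates above 75%; inconclusive = exactly half above 75%; inactive = most below 75%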;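 also: all wells also contain fluconazole at 8 µg/ml as a sub-toxic cotreatment; 0% = median of DMSO wells and 100% = median of geldanamycin control wells; wells of about 8 µL received 7.5 nL stock; the first replicate is given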
T cruzi repl = inhibitors of intracellular T. cruzi growth, primary screen, luminescence, NIH3T3 host cells; T. cruzi beta-gal in NIH3T3, 90 h; inhibition, % (no concentration beside the values); actives 1.4% (n = 300,000); AID 1885, 2009;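 active = mean inhibition across valid replicates above about 55%, limit read from the data; inconclusive = mean below that limit but half or more replicates reach it; inactive = mean below it, under half of replicates reach it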;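 also: signal also drops with host cell toxicity which is not excluded here; 0% = plate median of DMSO wells and 100% = zero luminescence signal; higher percent means less beta-gal luminescence so fewer parasites; stock transfer was 50 nL into about 50 µL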
ALR inh = inhibitors of human ALR sulfhydryl oxidase, primary screen, biochemical, H2O2 detection, HRP-luminol luminescence, single point; FAD-linked sulfhydryl oxidase ALR (Homo sapiens), P55789; purified ALR, DTT oxidation; inhibition, % (concentration not given with the values); actives 3.8% (n = 290,000);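 active = mean and each replicate at 75% or more; inconclusive = only one of the two met; inactive = neither met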;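 also: stock transfer was 7.5 nL into about 7.5 µL; 0% = neutral wells and 100% = wells with inactivated enzyme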
Target sequence (P55789 whole entry, looked up): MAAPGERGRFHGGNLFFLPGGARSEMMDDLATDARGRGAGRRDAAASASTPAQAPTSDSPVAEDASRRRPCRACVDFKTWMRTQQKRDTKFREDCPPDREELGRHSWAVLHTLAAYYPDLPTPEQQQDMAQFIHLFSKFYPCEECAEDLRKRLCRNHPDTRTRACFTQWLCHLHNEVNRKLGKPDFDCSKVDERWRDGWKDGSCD
FGF22 binding = binders of human FGF22 protein, primary screen, FGF22 synaptogenesis inhibitor project, biophysical, thermal shift, single point; Fibroblast growth factor 22 (Homo sapiens), Q9HCT0; recombinant FGF22 thermal shift, SYPRO orange fluorescence; percent of sucrose octasulfate shift, DMSO zero; calls only at 9.99 µM; actives 1.5% (n = 340,000); AID 651658, 2012;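 active = melting point raised past a set limit in the mean and every replicate; inconclusive = no clear call; three in four hits are not shown here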
Target sequence (Q9HCT0 whole entry, looked up): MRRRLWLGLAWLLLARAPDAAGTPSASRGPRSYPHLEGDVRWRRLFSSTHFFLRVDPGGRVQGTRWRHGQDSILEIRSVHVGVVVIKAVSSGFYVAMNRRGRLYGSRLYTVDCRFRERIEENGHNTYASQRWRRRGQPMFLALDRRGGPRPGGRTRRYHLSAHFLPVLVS
RanGTP-Impb inh = inhibitors of RanGTP-importin-beta interaction, primary screen, biochemical, FRET, CFP-Ran, YFP-importin-beta, homogeneous; Ran GTPase (GTP-bound) - importin-beta complex; cell-free CFP-Ran/YFP-importin-beta FRET ratio; inhibition, % (test concentration not listed); actives 1.1% (n = 300,000); AID 2216, 2009;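 active = most replicates above 15%; inconclusive = exactly half above 15%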;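 also: 0% = DMSO wells and 100% = Ran loaded with GDP instead of GTP; wells of about 40 µL received 100 nL stock; the first replicate is given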
AF4-AF9 inh = inhibitors of AF4 peptide binding to AF9, primary screen, biochemical, AlphaScreen, biotin-AF4 peptide, FLAG-AF9, single point; Protein AF-9 (Homo sapiens), P42568; inhibition, % at 10 µM; actives 0.47% (n = 350,000); AID 651704, 2012;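 active = every replicate reaching a set inhibition limit, whatever the replicate mean, cut at about 25% in these data; inconclusive = mean inhibition reaches that limit but some replicates miss it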;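 also: 0% = plate neutral control median and 100% = total signal loss; the record names both 10 and 1 µM as test concentration; the first replicate is given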
Target sequence (P42568 whole entry, looked up): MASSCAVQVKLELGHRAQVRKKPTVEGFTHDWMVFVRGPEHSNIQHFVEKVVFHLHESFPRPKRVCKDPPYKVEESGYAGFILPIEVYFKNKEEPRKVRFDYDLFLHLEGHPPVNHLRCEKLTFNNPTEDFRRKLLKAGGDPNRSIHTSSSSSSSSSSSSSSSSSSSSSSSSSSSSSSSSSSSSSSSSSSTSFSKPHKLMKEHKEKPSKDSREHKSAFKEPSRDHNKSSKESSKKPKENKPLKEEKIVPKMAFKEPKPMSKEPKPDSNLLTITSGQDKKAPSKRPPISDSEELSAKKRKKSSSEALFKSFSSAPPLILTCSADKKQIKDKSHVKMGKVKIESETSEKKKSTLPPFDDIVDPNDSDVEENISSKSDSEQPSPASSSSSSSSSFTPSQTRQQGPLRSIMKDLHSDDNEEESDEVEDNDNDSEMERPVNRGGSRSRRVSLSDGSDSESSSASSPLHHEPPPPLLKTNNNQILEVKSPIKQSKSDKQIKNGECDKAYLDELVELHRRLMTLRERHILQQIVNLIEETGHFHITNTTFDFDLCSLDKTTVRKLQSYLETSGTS
Beta cell apopt = inhibitors of cytokine-induced beta cell apoptosis, primary screen, luminescence; actives 0.8% (n = 300,000); INS-1E cytokine-induced death, ATP luminescence, 48 h; percent of positive-control rescue, neutral wells zero; protection from apoptosis, % (no concentration beside the values); AID 435005, 2010;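 active = all replicates at 75% or more, or half of them and the mean; inconclusive = half reach 75% but not the mean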;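 also: 0% = cytokine-treated negative control wells and 100% = positive control rescue; higher means more ATP so stronger rescue from cytokine killing; wells of about 40 µL received 100 nL stock; the first replicate is given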
Ecoli rRNA inh OD600 = further read-out of Ecoli rRNA inh, marked with its call; OD600 change, %; measured here: OD600 growth;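 optical density of the mix in the first replicate; 0 = DMSO median and -100 = no signal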
Ecoli rRNA inh RFP = recorded beside Ecoli rRNA inh, whose call it bears; RFP signal change, %; measured here: RFP humanized mutant strains;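 first replicate; 0 = DMSO median and -100 = no signal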
* hit, by the source's call; i = inactive; ? = inconclusive; . = not tested or not shown; & = joins results of further samples; ! = not active in a repeat. This is a subset; count on the stated rates, not on these rows.

molecule,Ecoli rRNA inh,Ecoli rRNA inh OD600,Ecoli rRNA inh RFP,Calb FLC,T cruzi repl,ALR inh,FGF22 binding,RanGTP-Impb inh,AF4-AF9 inh,Beta cell apopt
CN(C(=O)COc1ccc(Br)cc1Cl)C1CCCCC1,-46,-40,-11,-4,-2,-8,i,-2.7,-5.0,-5
CSc1nc(N2CCN(Cc3ccc4c(c3)OCO4)CC2)c2ccccc2n1,-25,-37,-7.8,-9,28,-3,.,5.9,.,3
Cc1cccc(CC2S/C(=N/N=C/c3ccco3)N(c3ccccc3)C2=O)c1 (stereo not drawn),3,8,3.2,-15,-12,.,i,0.6,4.4,-2
CCCCCCC(=O)N(O)C1CC(=O)N(c2ccccc2)C1=O (stereo not drawn),.,.,.,-28,2,0,.,-2.9,.,-21
COc1ccc(S(=O)(=O)CCC(=O)NCCc2ccc(Cl)cc2)cc1,-11,-13,11,-19,-5,-6,i,6.5,-0.2,1
O=S(=O)(/N=C(/Nc1ccc(Cl)c(S(=O)(=O)Nc2ccccc2Cl)c1)c1ccc(F)cc1)c1ccccc1,-28*!,-11*!,2.8*!,19,3,-6,i,?,-1.2&-1.4,4
COc1ccc(-n2c(SCC(=O)N3CCN(c4ccccc4)CC3)nc3c(c2=O)SCC3)cc1,-3,-8,4.0,-5,21,.,i,-3.3,5.5,-1
CN(C(=O)COC(=O)c1cc(-c2ccc(Cl)s2)nc2ccccc12)C1CCS(=O)(=O)C1 (stereo not drawn),-2,3,-1.7,-10,14,0,i,6.5,6.2,2
CC(NC(=O)c1ccc(C(C)(C)C)cc1)C(c1cccs1)N1CCOCC1 (stereo not drawn),-30,-25,1.2,0,12,4,i,1.6,-2.5,-5
CCC(CC)c1nnc(NC(=O)c2ccc3c(c2)OCO3)s1,1,1,-2.0,-11,17,25,i,-1.1,0.4,.
O=C(Nc1ncc(Cc2cccc(Cl)c2)s1)c1cccs1,.,.,.,-2,23,-9,.,2.9,.,-1
N=c1nc(-c2ccccc2)ccn1O,.,.,.,-1,8,-4,.,0.4,.,3
O=C(NCc1ccc2c(c1)OCO2)C1CC(c2ccc(Cl)c(Cl)c2)=NO1 (stereo not drawn),.,.,.,2,-4,-6,.,6.3,.,-5
CCCc1cc(=O)[nH]c(SCC(=O)NCCC2=CCCCC2)n1,-1,-10,-4.0,55,-1,-15,i,-2.8,-1.8,-1
COc1ccc(C(=O)/C=C/NCc2ccc(F)cc2)cc1OC,1,-10,0.5,-13,9,-18,i,6.1,-2.8,3
Fc1ccc(Cn2cccc2C2=NC(c3ccccc3)CO2)cc1 (stereo not drawn),-31,-27,-2.5,15,-7,-3,i,1.8,3.3,4
Cc1ccccc1Nc1c([N+](=O)[O-])ccc2c1=NC1(CCCCC1)N=2,6,7,-3.8,7,-8,-6,i,5.5,-44,-4
O=C(Nc1ccc(Br)cc1)C1CCCN(C2=NS(=O)(=O)c3ccccc32)C1 (stereo not drawn),8,8,2.7,.,.,1,i,.,3.0,0
C#CCOCCOCCOCCNc1nc(N2CCN(C(=O)Cn3cc(CCO)nn3)CC2)nc(N2CCN(C(=O)[C@H]([C@@H](C)O)n3cc(CCCCN)nn3)CC2)n1,3,5,2.3,-6,0,-9,i,4.0,-2.1,-4
Cc1ccccc1NC(=O)CCC(=O)N/N=C/c1ccncc1,4,6,-5.5,0,3,-13,i,-0.5,6.6,-3
O=C(Nc1cnn(Cc2ccc(F)cc2)c1)c1cnn2c(C(F)F)cc(-c3ccccc3)nc12,3,5,-6.6,?,40,-6,i,-1.8,-3.4,5
Cc1nnc(SCC(=O)NC2CCCCC2)s1,11,5,3.0,-4,-2,-14,i,-3.3,-12,-3
CCCCC1(Br)C(=O)N(c2ccccc2)N(c2ccccc2)C1=O,10,7,0.1,.,.,.,i,.,1.0,-1
CCCCc1nnc(NC(=O)Cc2ccc(S(=O)(=O)N3CCOCC3)s2)s1,7,9,-0.7,.,.,-1,i,.,2.4,-9
COCCN(C(=O)c1cc2c(s1)CCCCC2)c1c(N)n(CC(C)C)c(=O)[nH]c1=O,-2,-2,-4.7,.,.,-1,i,.,0.6,0
COCCCN1C(=O)C(=O)/C(=C(/O)c2ccc(S(=O)(=O)N3CCCCC3)cc2)C1c1ccc(F)cc1 (stereo not drawn),-2,12,-0.4,5,-10,8,i,4.2,-1.5,-5
O=C(NCCN1CCOCC1)C1CC(=O)N(c2ccc(F)c(Cl)c2)C1 (stereo not drawn),.,.,.,-14,-16,-2,.,-0.5,.,-4
CCOC(=O)c1oc2cccc(O)c2c1C,.,.,.,-20,-39,2,.,2.9,.,4
COc1ccc(-c2c(C(F)(F)F)nn(C)c2NC(=O)c2ccco2)cc1,-12,8,0.8,-2,0,-4,i,0.8,2.2,-1
O=C(COC(=O)c1ccc[nH]c1=O)NC1CCCCCCC1,11,0,1.6,10,0,.,i,-2.5,2.3,-9
CC(C)(C)OC(=O)C[C@H]1C/C=C\C[C@@H](CC(=O)N[C@H](CO)Cc2ccccc2)C(=O)N2CCC[C@H]2COC1=O,-2,4,-1.5,.,.,8,i,.,-0.2,10
COc1ccc(/C=C2\N=C3CCCCCN3C2=O)cc1,3,4,-0.5,-10,-9,-4,i,-1.5,3.2,1
C/C(=N\NC(=O)CNc1cccc2ccccc12)c1ccccc1,-2,-2,3.0,5,-23,-16,i,-0.7,-0.8,2
Clc1ccc(N=c2ssnc2Cl)nc1,20,31,6.8,?,58*,37,i,-10,-2.8,-12
CCN(CC)S(=O)(=O)c1ccc(/C=C/C(=O)OCC(=O)Nc2cccnc2Cl)cc1,2,-5,4.7,.,.,2,i,.,1.8,-6
Cc1cccc(Oc2ccccc2NC(=O)CN2C(=O)NC3(CCCC3)C2=O)c1,-1,-12,-2.4,1,-9,1,.,-1.7,-6.2,-8
O=C(c1ccsc1)N1CCCC(Nc2ccc(F)c(F)c2)C1 (stereo not drawn),5,-3,3.2,10,-5,57,i,2.9,0.5,-1
CCOc1ccc(NC(=O)COC(=O)CNC(=O)c2ccc(-c3ccccc3)cc2)cc1,9,13,0.2,.,.,-1,i,.,1.3,-3
COc1cc(C(=O)Nc2nc(-c3ccc(F)cc3)cs2)ccc1OCC(=O)N1CCOCC1,19,15,20,8,60*,11,i,6.3,0.0,29
CCOc1cc2[nH]c(=S)n(Cc3ccc(C)o3)c(=O)c2cc1OCC,8,5,-4.9,20,16,4,i,1.6,-0.7,11
CCn1nnnc1SCC(=O)NCc1ccco1,.,.,.,-9,2,3,.,0.4,.,.
COc1ccc(OCCCC(=O)OCC(=O)NNC(=O)c2ccc([N+](=O)[O-])cc2)cc1,16,9,2.0,-6,-8,.,i,3.9,0.0,-5
CNC(=O)NC(=O)CSc1ncc(C(F)(F)F)cc1Cl,.,.,.,-10,-12,.,.,8.5,.,-5
O=C(C[n+]1ccc(CCSc2ccc(F)cc2)cc1)c1ccccc1,.,.,.,61,-3,27,.,5.3,.,-6
COc1ccc([N+](=O)[O-])cc1N(CC1CO1)S(=O)(=O)c1ccc(C)cc1 (stereo not drawn),-8,-3,1.8,10,3,-4,i,?,-2.7,-2
CN1CCN(c2ccc(CNS(=O)(=O)c3cccc(F)c3)cc2)CC1,.,.,.,-4,3,-28,i,1.7,0.8,-8
CC1(C)CCCN(C(=O)c2ccc3c(c2NCCO)C(=O)c2ccccc2C3=O)C1,.,.,.,17,10,-21,.,-3.0,.,9
COc1cccc(C(=O)NNS(=O)(=O)c2ccc(F)cc2)c1,0,2,-1.0,21,-5,29,i,0.4,-3.3,-1
CCC1CCCCN1S(=O)(=O)c1c(C)n(C)c(=O)n(C)c1=O (stereo not drawn),0,-2,-0.6,7,-4,-3,i,2.5,-13,.
CCCOc1ccc(CSc2ncn[nH]2)cc1,.,.,.,-6,-12,-3,.,-7.6,.,-5

Next section
molecule,Ecoli rRNA inh,Ecoli rRNA inh OD600,Ecoli rRNA inh RFP,Calb FLC,T cruzi repl,ALR inh,FGF22 binding,RanGTP-Impb inh,AF4-AF9 inh,Beta cell apopt
Cc1nnc(N2C(=O)C(O)=C(C(=O)c3ccco3)C2c2ccc(F)cc2)s1 (stereo not drawn),3,1,-1.2,-1,-6,71,i,-8.4,2.1,-9
CS(=O)(=O)c1ccc(Cl)c(NC(=O)COC(=O)c2ccc(S(=O)(=O)N3CCCC3)cc2)c1,14,18,0.7,.,.,1,i,.,-1.5,-5
O=C(Nc1cccc(-n2cnnn2)c1)c1ccc(C(F)(F)F)cc1,2,10,-1.4,.,.,.,i,.,-1.1,-1
CC(=O)N1CCC[C@H]1C(=O)O,12,11,-1.6,-3,-21,.,i,2.2,0.6,-4
COc1ccc(N(C)S(=O)(=O)c2cccc(C(=O)NCC3CCCCC3)c2)cc1,-25,-38,-2.7,4,69*,.,i,4.8,3.9,.
COc1ccc2nc3cc(Cl)ccc3c(Nc3cc(CN4CCCC4)c(O)c(CN4CCCC4)c3)c2n1,.,.,.,-19,59*,99*,i,?,47*,?
C=CCn1c(SCC(=O)NC(=O)c2cccc([N+](=O)[O-])c2)nnc1-c1ccccc1,.,.,.,0,0,.,.,-3.3,.,-6
COc1ccc(NC(=O)CN(c2ccc(OC)c(Cl)c2)S(=O)(=O)c2ccccc2)c(OC)c1,0,8,-0.5,7,33,.,i,-0.1,-0.9,12
COC(=O)c1ccc(CSc2nnc(-c3c[nH]c4ccccc34)n2-c2ccccc2)cc1,-8,-6,1.7,-12,29,32,i,-0.5,-7.0,-6
CCN(CC(=O)Nc1ccc2c(c1)OCCO2)CC(=O)Nc1ccc(C)c([N+](=O)[O-])c1,-3,-15,14,.,.,-27,i,.,2.1,0
Nc1nonc1-n1nnc(C(=O)N/N=C/c2ccc(Cl)cc2)c1-c1ccc2c(c1)OCO2,0,1,-4.0,3,-19,-5,i,-1.8,-4.8,3
C=CCNC(=O)c1ccc(C2SCC(=O)N2Cc2ccco2)cc1 (stereo not drawn),1,-1,-0.9,?,-17,-3,i,?,-1.8,-5
COc1ccc(CCNC(=O)C(=O)NCC2OCCN2S(=O)(=O)c2ccc(OC)c(OC)c2)cc1OC (stereo not drawn),4,7,-5.5,-12,-1,.,i,3.1,0.3,0
Cc1cc(C(=O)CSc2nc3ccccc3o2)c(C)n1C1CC1,.,.,.,9,5,39,.,-5.9,.,-5
